Compound activity deposited in PubChem BioAssay by Johns Hopkins Ion Channel Center.
KCNQ2 block: KCNQ2 potassium channel inhibitors, primary screen, cell-based, CHO-K1, FluxOR thallium flux, B-score (AID 2156) | hit rate 1.1% among 310,000 | O88943 | B-score at 10 µM | 20 min; hits give low values; only compounds with negative scores are shown here; some inactives read as strong as hits;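 active means fluorescence ratio B-score at most minus 3 library SDs, with starting brightness B-score within 2 library SDs, cut at about -5.5 in these data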
Target sequence (O88943 whole entry, looked up): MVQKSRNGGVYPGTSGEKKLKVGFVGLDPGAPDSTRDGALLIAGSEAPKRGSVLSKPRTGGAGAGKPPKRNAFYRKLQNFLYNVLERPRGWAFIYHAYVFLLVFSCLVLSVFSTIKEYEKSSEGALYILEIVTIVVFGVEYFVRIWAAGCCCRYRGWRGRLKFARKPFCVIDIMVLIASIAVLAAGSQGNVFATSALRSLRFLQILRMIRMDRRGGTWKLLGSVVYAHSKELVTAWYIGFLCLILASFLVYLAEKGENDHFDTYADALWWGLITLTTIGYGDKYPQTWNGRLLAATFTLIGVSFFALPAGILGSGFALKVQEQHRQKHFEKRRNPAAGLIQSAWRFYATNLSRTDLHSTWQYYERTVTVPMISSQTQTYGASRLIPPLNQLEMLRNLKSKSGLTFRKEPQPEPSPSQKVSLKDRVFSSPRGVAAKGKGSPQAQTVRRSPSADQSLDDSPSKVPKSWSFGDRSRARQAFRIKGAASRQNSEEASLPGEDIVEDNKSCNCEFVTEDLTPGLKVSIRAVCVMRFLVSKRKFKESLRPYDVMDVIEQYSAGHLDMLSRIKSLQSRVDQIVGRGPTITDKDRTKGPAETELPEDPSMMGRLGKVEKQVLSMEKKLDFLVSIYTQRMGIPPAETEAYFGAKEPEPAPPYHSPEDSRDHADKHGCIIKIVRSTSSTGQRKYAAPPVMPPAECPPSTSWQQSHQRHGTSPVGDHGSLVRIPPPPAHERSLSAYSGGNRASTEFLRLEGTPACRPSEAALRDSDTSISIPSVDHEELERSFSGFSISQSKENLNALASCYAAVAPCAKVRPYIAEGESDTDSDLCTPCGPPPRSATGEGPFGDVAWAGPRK
KCNQ2 block baseline: further read-out of KCNQ2 block, marked with its call; B-score; measured here: initial fluorescence intensity artifact check;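 brightness before thallium and not channel activity; 0 = typical well and far values either way flag optical interference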
* hit, by the source's call; i = inactive. Some of the compounds tested; the hit share may differ from the screen's.

KCNQ2 block	KCNQ2 block baseline	molecule
i	-1.2	CCN(CC)S(=O)(=O)N1CCC(C(=O)NCCC2=CCCCC2)CC1
i	0.42	O=C(Oc1cccnc1)c1cc(S(=O)(=O)N2CCCCC2)ccc1Cl
i	-0.37	CSc1ncccc1-c1nc2ccccc2[nH]1
i	-0.84	Cc1cccc2cc(CN(Cc3cccs3)C(=S)NCC3CCCO3)c(=O)[nH]c12 (stereo not drawn)
i	-0.91	CC(C)CCN(Cc1ccco1)S(=O)(=O)c1csc(C(N)=O)c1
i	-0.74	Cn1cccc1/C=N/NC(=O)c1cc2ccccc2cc1O
i	-0.08	Cc1ccc(C(=O)C2=C(O)C(=O)N(Cc3cccnc3)C2c2ccc(Cl)c(Cl)c2)o1 (stereo not drawn)
i	1.1	CN(CC(=O)Nc1cccc2ccccc12)C(=O)/C=C/c1cccs1
i	3	CC(Oc1ccc(Cl)cc1)C(=O)NCCCn1ccnc1 (stereo not drawn)
i	0.75	CC(C)CC(COCc1cccc(Cl)c1)N1CCN(C(=O)c2ccc(C(F)(F)F)cc2)CCC1=O (stereo not drawn)
i	0.01	Cc1cccc(C)c1NC(=O)N1C(C(=O)O)CSC1C(=O)O (stereo not drawn)
-8.8*	-1*	COc1ccc(CNC(c2ccccc2)c2ccc(Cl)cc2)cc1 (stereo not drawn)
i	1.2	CC(=O)Oc1ccccc1C(=O)N1CCN(S(=O)(=O)c2ccc3ccccc3c2)CC1
i	0.02	CN(C)/C=N/c1ncc(C(=O)c2ccc3ccccc3c2)s1
i	0.87	CS(=O)(=O)N(CC(=O)N1CCCC1)c1ccc(Cl)cc1
i	0.04	NC(=S)N/N=C/c1ccccc1[N+](=O)[O-]
i	1.4	O=c1/c(=C/c2ccco2)sc2n1CN(c1cccc(Br)c1)CN=2
i	-1.6	O=C(Nc1nnc(C(F)(F)F)s1)c1c(F)cccc1F
i	-2.1	COc1ccc(-n2c(NN)nc3sc4c(c3c2=O)CCCC4)cc1
i	4.2	Cc1c(C(=O)N(C)C)c2ccc(Cl)cc2n1O
i	-0.39	CC(C)NCCCOc1ccc(Cl)cc1Br
i	-0.52	N#Cc1ccc(C23CC4(C2)[C@H](CN(CC2CCCCC2)[C@@H]4c2ccccc2)C3c2ccc(Cl)nc2)cc1 (stereo partly drawn)
i	-0.54	O=C(NNC(=O)C1CCN(S(=O)(=O)c2ccccc2C(F)(F)F)CC1)c1ccccc1O
i	-0.25	N#CCCN1CCN(S(=O)(=O)c2ccc(S(=O)(=O)N3CCCC3)cc2)CC1
i	1.2	Nc1c(C(=O)Nc2ccccc2)c2nc3ccccc3nc2n1-c1ccc(O)cc1
i	-2	COc1ccc(OC)c(NC(=O)c2nc(S(=O)(=O)Cc3ccccc3)ncc2Cl)c1
i	1.5	COc1ccc(C(=O)NC(=S)NNC(=O)c2ccc(NC(=O)C(C)C)cc2)cc1
i	0.02	C/C(=N/NC(=O)C1CC1(c1ccccc1)c1ccccc1)c1ccco1 (stereo not drawn)
i	2	Cc1cc(NC(=O)C(Cl)c2ccccc2)no1 (stereo not drawn)
i	2.2	CCc1nnc(NC(=O)CCC(=O)Nc2ccc(Cl)cc2)s1
i	2.4	O=S(=O)(Nc1ccccc1)c1ccc(Oc2ncc(C(F)(F)F)cc2Cl)cc1
i	1.2	CCN(CC)N=Nc1ccc(S(N)(=O)=O)cc1
i	2.3	Cc1cc(=O)oc2cc(OCC(=O)N3CCc4ccccc4C3)ccc12
i	0.35	COc1ccccc1C(=O)Nc1nnc(SCC(=O)Nc2ccc3c(c2)oc2ccccc23)s1
i	-0.14	C=C(C(=O)O)C(CCCCCC)C(=O)O (stereo not drawn)
i	1.5	COCCOc1cc(N2C(=O)CSCC2=O)c(Cl)cc1Cl
i	1.3	CCCCn1c(N)c(N(CCC(C)C)C(=O)CC2CCCC2)c(=O)[nH]c1=O
i	-0.49	COC(=O)C1C(c2ccc(N(C)C)cc2)C(C(=O)OC)S(=O)(=O)CS1(=O)=O (stereo not drawn)
i	-0.8	O=C(/C=C/Nc1ccccc1C(F)(F)F)c1ccco1
i	1.7	O=C(c1ccc(OC2CCN(CCc3ccccc3)CC2)cc1)N1CCC(CO)CC1
i	-1.7	COc1ccc(S(=O)(=O)N2CCN(CC(O)COc3ccc(C#N)cc3)CC2)cc1OC (stereo not drawn)
i	-0.37	O=C(NCCc1nnc2ccc(NCCCN3CCOCC3)nn12)c1ccccc1
i	1.4	CC(=O)Nc1ccc(S(=O)(=O)N2CCCC(C(=O)O)C2)cc1 (stereo not drawn)
i	0.65	O=C(NCc1ccc(F)cc1)C(=O)NCC1OCCN1S(=O)(=O)c1cccs1 (stereo not drawn)
i	0.24	COCCCNC(=O)Cn1ncc2c(=O)oc3ccccc3c21
i	0.76	CCOC(=O)c1c(C)oc2c1c(C=NCCC(=O)O)c(O)c1ccccc12
i	-1.1	O=C(Nc1cccc(/C=C/c2ccccn2)c1)c1cc(Cl)ccn1
-7.9*	-1.7*	Cc1ccc(NC(=O)CSc2nc3ccccc3c(=O)n2CCCN2CCCCC2)cc1Cl

16 consecutive records already listed:
KCNQ2 block	KCNQ2 block baseline	molecule
i	2.3	Cc1cc(=O)oc2cc(OCC(=O)N3CCc4ccccc4C3)ccc12
i	0.35	COc1ccccc1C(=O)Nc1nnc(SCC(=O)Nc2ccc3c(c2)oc2ccccc23)s1
i	-0.14	C=C(C(=O)O)C(CCCCCC)C(=O)O (stereo not drawn)
i	1.5	COCCOc1cc(N2C(=O)CSCC2=O)c(Cl)cc1Cl
i	1.3	CCCCn1c(N)c(N(CCC(C)C)C(=O)CC2CCCC2)c(=O)[nH]c1=O
i	-0.49	COC(=O)C1C(c2ccc(N(C)C)cc2)C(C(=O)OC)S(=O)(=O)CS1(=O)=O (stereo not drawn)
i	-0.8	O=C(/C=C/Nc1ccccc1C(F)(F)F)c1ccco1
i	1.7	O=C(c1ccc(OC2CCN(CCc3ccccc3)CC2)cc1)N1CCC(CO)CC1
i	-1.7	COc1ccc(S(=O)(=O)N2CCN(CC(O)COc3ccc(C#N)cc3)CC2)cc1OC (stereo not drawn)
i	-0.37	O=C(NCCc1nnc2ccc(NCCCN3CCOCC3)nn12)c1ccccc1
i	1.4	CC(=O)Nc1ccc(S(=O)(=O)N2CCCC(C(=O)O)C2)cc1 (stereo not drawn)
i	0.65	O=C(NCc1ccc(F)cc1)C(=O)NCC1OCCN1S(=O)(=O)c1cccs1 (stereo not drawn)
i	0.24	COCCCNC(=O)Cn1ncc2c(=O)oc3ccccc3c21
i	0.76	CCOC(=O)c1c(C)oc2c1c(C=NCCC(=O)O)c(O)c1ccccc12
i	-1.1	O=C(Nc1cccc(/C=C/c2ccccn2)c1)c1cc(Cl)ccn1
-7.9*	-1.7*	Cc1ccc(NC(=O)CSc2nc3ccccc3c(=O)n2CCCN2CCCCC2)cc1Cl

Other compounds:
KCNQ2 block	KCNQ2 block baseline	molecule
-7.5*	1.6*	Cc1ccc(C(=O)COC(=O)C2C3C=CC(C3)C2C(=O)OCC(=O)c2ccc(C)c(C)c2)cc1C (stereo not drawn)
i	0.87	O=C(Nc1ccc(F)cc1)Nc1csc2ccccc12
i	-0.47	CC(C)(C)NC(=O)C1N(c2cccnc2)C(=O)C2C(C(=O)Nc3ccccc3)C3(C)C=CC21O3 (stereo not drawn)
i	-0.05	CCOC(=O)CSc1nnnn1-c1cc(OC)c(Cl)cc1OC
i	-0.5	Cc1ccc(Nc2[nH]c(=O)c3ccccc3c2C(=O)c2ccccc2)cc1
i	0.13	O=C1N=C2SCCN2/C1=C\c1c(Cl)cccc1Cl
i	0.39	O=C(COC(=O)CSc1ccc(F)cc1)NCC1CCCCC1
i	1.9	CON/C=C(\C=Nc1ccc(Cl)cc1Cl)c1ncc(C(F)(F)F)cc1Cl
i	1	O=C1CCCN1Cc1ccccc1
i	2	COC(=O)c1ccc(CN2CCCC(CO)(Cc3ccc(F)cc3F)C2)cc1 (stereo not drawn)
i	1.9	O=C(CCc1nnc(CCCCc2ccccc2)o1)NC1CCCC1
i	0.06	CCOc1ccc(NC(=O)CSCc2cnn(-c3ccccc3)c2-n2cccc2)cc1
i	-0.8	CCC(Oc1ccc(C)c(C)c1)C(=O)N1CCCN(C)CC1 (stereo not drawn)
i	2.5	COC(=O)c1sc2nc[nH]c(=O)c2c1C
i	-0.04	Cc1ccc(C)c(C(=O)N(C)CC(=O)Nc2ccccc2C(F)(F)F)c1
i	1.6	COc1ccccc1C1C(C(=O)c2ccco2)=C(O)C(=O)N1c1cc(C)on1 (stereo not drawn)
i	0.21	Cc1noc(C)c1C(=O)OCC(=O)Nc1ccccc1C(=O)NC(C)c1ccccc1 (stereo not drawn)
i	-1	O=C(NNC(=S)NCCCN1CCOCC1)c1ccncc1
i	-1.4	Cc1onc(-c2c(Cl)cccc2Cl)c1C(=O)NNc1ccccc1
i	-1.3	O=C(COc1ccc(S(=O)(=O)N2CCCC2)cc1Cl)NC1CCCC1
i	0.99	O=C(N/N=C/C(Cl)=C/c1ccccc1)c1ccccn1
i	0.43	Cc1ccc2[nH]c(=O)c(CC(=O)O)c(-c3ccccc3)c2c1
i	0.28	CN(C)c1ccc(/C=C(\NC(=O)c2ccccc2)C(=O)NCc2cccnc2)cc1
i	2.8	COc1ccc(N2CCN(C(=O)CNS(=O)(=O)c3ccc(C)cc3)CC2)cc1
i	1	Cn1c(SCC(=O)N2CCOCC2)nc(O)cc1=O
i	-3.7	CC1(C)OC(=O)C(=NNc2ccccc2)C(=O)O1
i	1.1	Cc1nnc(SCC(=O)NC(C)(C)C)n1C1CCCCC1
i	1.3	N#C/C(=C(/O)c1ccc([N+](=O)[O-])cc1)c1nc2ccccc2[nH]1
i	1.3	CC(C)(C)n1nc(Cc2cccc3ccccc23)c(C#N)c1N
i	0.05	COCCn1nnnc1C(C(C)C)N(Cc1cccnc1)Cc1cc2cc(OC)ccc2[nH]c1=O (stereo not drawn)
i	0.25	Cc1ccc(C)c(S(=O)(=O)NCC(=O)Nc2sc3c(c2C(N)=O)CCC(C)C3)c1 (stereo not drawn)
i	-0.42	CCCSC1=N/C(=C\C=C\c2ccco2)C(=O)S1
i	-1.2	NCCCCCc1nnc(SCC(=O)Nc2cccc(Cl)c2)o1
i	-1.5	COc1ccc(CC(=O)N(Cc2ccccc2)c2ccccc2)cc1S(=O)(=O)N1CCOCC1
i	0.78	COc1ccc(NC(=O)Cn2nc(C(F)(F)F)c3c2CCCC3)c(OC)c1
i	-0.65	CNS(=O)(=O)c1ccc(N2CCCC2)c([N+](=O)[O-])c1
i	-0.05	Cc1cccc(COCCN2CCN(S(=O)(=O)c3ccccc3)CCC2=O)c1
i	-1.5	CN(C)S(=O)(=O)c1cccc(C(=O)NCc2ccco2)c1
i	-0.91	CNC(=O)C1CC(=O)N(CCc2ccc(OC)cc2)C(=Nc2ccc(OC)cc2)S1 (stereo not drawn)
i	1.2	CCc1ccc(CN(C)CC(=O)Nc2ccccc2[N+](=O)[O-])cc1
i	0.66	COc1ccc(CCNC(=O)COc2ccc(N(C)S(=O)(=O)c3ccc(C)cc3)cc2)cc1OC
i	0.45	COc1cc(OC)c(C(=O)OCN2C(=O)c3ccccc3C2=O)cc1OC
i	1.8	CCN1CCN(C2CC(=O)NC2=O)CC1 (stereo not drawn)
i	1.8	Cc1c(C(=O)O)nnn1-c1nonc1N
i	0.03	Cn1c2ccccc2c2cnn(CC(=O)Nc3ccc(Cl)cc3)c(=O)c21
i	-0.02	COc1ccc(/C(N)=N/OC(=O)c2ccc(C)c([N+](=O)[O-])c2)cc1OC
i	0.02	Cc1onc(-c2ccccc2Cl)c1C(=O)N1CCN(c2ncccn2)CC1
i	-1	O=C(Oc1cccc(NC(=O)c2ccco2)c1)c1ccc(Br)c(S(=O)(=O)N2CCCCC2)c1
i	1.5	Cc1ccc(-c2csc(C3C(N)=NC(S)=C(C#N)C34CCCCC4)n2)cc1 (stereo not drawn)
i	0.72	CC(=O)N1CCN(C(=O)c2cc(S(=O)(=O)Nc3ccc(S(C)(=O)=O)cc3)ccc2Cl)CC1
i	0.45	COc1ccc(-n2nc3c(c2NC(=O)c2c(-c4ccccc4Cl)noc2C)CS(=O)(=O)C3)cc1
i	-1.3	O=C(C/C=N\OCc1ccc([N+](=O)[O-])cc1)Nc1ccc(Cl)cc1
i	0.1	CC1=C(C(N)=O)C(c2cccs2)NC(=O)N1 (stereo not drawn)
i	-1.1	Cc1nc(-c2ccc(-c3ccon3)s2)no1
i	-0.01	COCCNc1nc2ccccc2n2cnnc12
i	-0.25	O=[N+]([O-])c1cccc(-c2ccc(SCc3cccnc3)nn2)c1
i	0.7	CCOC(=O)c1c(C)c(C(=O)NC(C)COC)c(C)n1C (stereo not drawn)
i	0.17	CN1c2ccccc2C2(C)CCCC3=Cc4cc([N+](=O)[O-])cc([N+](=O)[O-])c4OC312 (stereo not drawn)
i	-0.91	O=S(=O)(c1ccc(-c2csc(-c3cccnc3)n2)cc1)N1CCCCC1
i	-0.08	COc1cccc(NC(=S)N2CCc3cc(OC)c(OC)cc3C2COc2ccc3c(C)cc(=O)oc3c2)c1 (stereo not drawn)

Additional compounds
KCNQ2 block	KCNQ2 block baseline	molecule
i	0.49	Cc1cccc(NC(=O)NC(C)C(c2ccccc2)N2CCN(C)CC2)c1 (stereo not drawn)
i	-0.22	O=[N+]([O-])c1cccc(Oc2cnccn2)c1
i	0.62	CCn1c(N2CCN(C(=S)NC)CC2)nc2ccccc21
i	0.32	CCN(CC(=O)Nc1ccccc1C(F)(F)F)C(=O)CCOc1ccc(C)cc1
i	0.02	COc1ccc(C2c3ccc(O)cc3Oc3ncn(CC(C)C)c(=N)c32)cc1 (stereo not drawn)
i	0.76	COc1nc(N2CCCCCC2)nc(N2CCCCCC2)n1
i	-0.88	CN(C)c1ccc(P(=O)(OCc2ccccc2)C(O)c2ccc(Cl)cc2)cc1 (stereo not drawn)
i	1.4	CC(=O)Nc1cc2c(ccc3ccccc32)oc1=O
